Assay outcomes as filed in PubChem BioAssay.
KCNQ2 block = KCNQ2 potassium channel inhibitors, primary screen, cell-based, CHO-K1, FluxOR thallium flux, B-score (AID 2156); B-score at 10 µM; 20 min; active compounds read low; only compounds with negative scores are shown here; some inactives read as strong as hits; actives 1.1% (n = 310,000);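 active = fluorescence ratio B-score at most minus 3 library SDs, with starting brightness B-score within 2 library SDs, cut at about -5.5 in these data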
Target sequence (O88943 whole entry, looked up): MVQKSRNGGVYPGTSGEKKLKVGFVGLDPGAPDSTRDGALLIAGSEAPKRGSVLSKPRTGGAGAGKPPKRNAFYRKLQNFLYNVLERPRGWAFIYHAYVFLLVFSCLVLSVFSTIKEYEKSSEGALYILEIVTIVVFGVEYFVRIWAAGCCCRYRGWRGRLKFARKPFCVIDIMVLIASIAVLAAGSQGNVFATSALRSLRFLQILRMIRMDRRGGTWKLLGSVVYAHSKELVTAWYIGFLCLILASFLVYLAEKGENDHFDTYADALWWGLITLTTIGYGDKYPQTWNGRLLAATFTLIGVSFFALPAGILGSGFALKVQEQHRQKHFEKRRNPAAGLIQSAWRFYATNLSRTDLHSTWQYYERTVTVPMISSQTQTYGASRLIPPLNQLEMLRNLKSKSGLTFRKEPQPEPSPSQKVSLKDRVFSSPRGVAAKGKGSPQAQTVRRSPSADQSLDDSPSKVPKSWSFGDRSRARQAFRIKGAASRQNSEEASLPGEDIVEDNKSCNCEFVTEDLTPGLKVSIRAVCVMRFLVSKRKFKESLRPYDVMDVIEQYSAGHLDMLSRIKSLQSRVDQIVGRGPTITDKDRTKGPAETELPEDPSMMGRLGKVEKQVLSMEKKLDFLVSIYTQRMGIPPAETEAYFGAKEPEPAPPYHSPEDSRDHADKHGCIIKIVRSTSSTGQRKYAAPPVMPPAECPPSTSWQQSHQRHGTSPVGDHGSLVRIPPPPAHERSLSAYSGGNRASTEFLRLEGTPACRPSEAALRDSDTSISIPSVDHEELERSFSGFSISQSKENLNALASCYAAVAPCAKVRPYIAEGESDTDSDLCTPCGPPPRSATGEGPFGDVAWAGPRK
KCNQ2 block baseline = further read-out of KCNQ2 block, marked with its call; B-score; measured here: initial fluorescence intensity artifact check;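 brightness before thallium and not channel activity; 0 = typical well and far values either way flag optical interference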
An asterisk follows results filed as active; i = inactive. These rows are one share of the data; the hit share may differ from the screen's.

Order of values: KCNQ2 block | KCNQ2 block baseline
O=C(Nc1ccc(O)cc1C(=O)O)c1cccs1
  i | 0.01
CCOC(=O)c1[nH]c(C)c(C(=O)Nc2ccccc2C)c1C
  i | -0.85
CCc1cccc(CC)c1NC(=O)CO/N=C(\N)CC(=O)NC1CCCCC1
  i | 1.19
COC(=O)C(=N/Nc1ccccc1C(=O)OC)/C(C)=N/O
  i | 0.67
CC(C)CNC(=O)/C=C/C(=O)O
  i | -2.13
COc1ccc(N2CCN(CCNC(=O)c3ccc(NC(=O)C4CCCO4)cc3)CC2)cc1 (stereo not drawn)
  i | -0.06
C#CCSc1nnc(CNS(=O)(=O)c2ccc(Br)cc2)n1C
  i | 0.85
COc1ccc(OCC(=O)Nc2nonc2NC(=O)COc2ccc(OC)cc2)cc1
  i | -0.42
COc1ccc2nc(SCC(=O)NCc3ccc(F)cc3)[nH]c2c1
  i | -1.71
CCN(CC)C(=O)CC(c1ccc(F)cc1)c1ccco1 (stereo not drawn)
  i | -1.18
CC(=O)Oc1ccc(N2C(=O)C3C4C=CC(CC4)C3C2=O)cc1[N+](=O)[O-] (stereo not drawn)
  i | 0.03
Cc1ccc(C(=O)NCc2ccc(F)cc2)cc1NC1=NC2CS(=O)(=O)CC2S1 (stereo not drawn)
  i | -0.35
Cc1ccccc1/[N+]([O-])=C/c1cccs1
  i | -0.44
CN(Cc1ccccc1)C(=O)N[C@@H](Cc1ccccc1)C(=O)O
  i | 3.84
c1ccc(CSc2ccc(-c3ccco3)nn2)cc1
  i | 1.12
Clc1ccc(Cc2nc(-c3cccnc3)no2)cc1
  i | -0.03
Cc1ccnc(NC(=O)COc2ccc3c(c2)CCC3)c1
  i | -0.17
COc1ccc(C2=Nc3nc(-c4ccccc4)cn3C(c3ccc(OC)cc3)C2)cc1 (stereo not drawn)
  i | 0.08
Cc1ccc(/C=C(/C#N)C(=O)NC(C)c2ccccc2)o1 (stereo not drawn)
  i | 2.08
CC(=O)N1c2ccc(S(=O)(=O)NCCC(=O)NCc3ccc(Cl)cc3)cc2CC1C (stereo not drawn)
  i | -3.35
Cc1cccc(NC(=O)NCc2cccnc2)c1C
  i | 1.08
Cc1ccc([N+](=O)[O-])cc1N=C1C(=O)Nc2ccccc21
  i | -0.61
CC(=O)N(CN1C(=O)c2ccc([N+](=O)[O-])cc2C1=O)c1cccc(C(=O)O)c1
  i | -0.01
Clc1ccc(Oc2nc3c(Cl)cccc3s2)cc1Cl
  i | 2.64
CN(C)C(CNc1ncnc2ccccc12)c1c(F)cccc1Cl (stereo not drawn)
  i | -0.95
Cc1nc2ccc(NC(=O)c3cccc(S(=O)(=O)N4CC(C)OC(C)C4)c3)cc2s1 (stereo not drawn)
  i | 0.05
COc1ccc(C(=O)NCCn2cc(SCC(=O)NCc3ccco3)c3ccccc32)cc1
  i | 0.83
CCc1nnc(NC(=O)CCC(=O)N2CCCC(O)C2)s1 (stereo not drawn)
  i | 0.46
C=C(Br)CN1CCN(CC(=C)Br)CC1
  i | 0.44
Cc1ccc(NC(=O)NCc2ccncc2)cc1Cl
  i | -0.35

Next section; it opens with the two that closed the last part.
Order of values: KCNQ2 block | KCNQ2 block baseline
C=C(Br)CN1CCN(CC(=C)Br)CC1
  i | 0.44
Cc1ccc(NC(=O)NCc2ccncc2)cc1Cl
  i | -0.35
COc1ccc(CCN2CCC(Nc3nc4ccccc4n3Cc3ccc(F)cc3)CC2)cc1
  i | -1.95
CCOC(=O)C1CCCN(Cc2cc(OC)c(O)c(OC)c2)C1 (stereo not drawn)
  i | 0.99
CCCCn1c(SCc2ccc(C(=O)OC)o2)nc2cc(S(N)(=O)=O)ccc21
  i | 0.34
COc1ccc(C)cc1NC(=O)CN1C(=O)COc2ccc(S(=O)(=O)N3CCCCCC3)cc21
  i | -1.88
O=C(Nc1ccccc1)N1CCSc2ccccc21
  i | 0.45
O=S(=O)(Cc1ccccc1)Nc1ccccc1Br
  i | 1.24
O=C(Cn1nc(-c2ccccc2)ccc1=O)NCCCN1CCOCC1
  i | -1.78
CCC(CC)c1nnc(NC(=O)C2CC(=O)N(C3CCCC3)C2)s1 (stereo not drawn)
  i | -0.01
COc1ccc(NC(=S)Nn2cnnc2)c(OC)c1
  i | -2.68
O=C(O)/C=C/C(=O)Nc1ccc(C(=O)c2ccccc2)cc1
  i | -0.05
Oc1c(CN2CCOCC2)ccc2ccccc12
  i | -1.18
Cc1cc(C)cc(-n2ncc3c2CCCC3NC(=O)C2(C(N)=O)CC2)c1 (stereo not drawn)
  i | -0.4
C=CCn1c(SCC(=O)Nc2sccc2C(N)=O)nc2sc(CC)cc2c1=O
  i | 1.67
CN(/N=C/c1ccncc1)c1cnc2ccccc2n1
  i | 0.81
CC(=O)NCCNc1nc2c(-c3cccc(C)c3)nnn2c2ccccc12
  i | 2.51
O=C(CSc1nc2[nH]ncc2c(=O)[nH]1)NCc1ccc(F)cc1
  i | 0.83
CCOCCCN(C(=O)Cn1nnc(-c2ccc(OC)c(OC)c2)n1)C(C(=O)NCC1CCCO1)c1ccc(F)cc1 (stereo not drawn)
  i | 0.52
Cn1cc(C(=O)N2CCCCC2)c(=O)c2cc(S(=O)(=O)N3CCCC3)ccc21
  i | -0.17
CCN(C(=O)CSc1nc2ccccc2c(=O)n1CCOC)C1CCS(=O)(=O)C1 (stereo not drawn)
  i | -1.36
CC(C)n1nnnc1SCC(=O)NCc1ccco1
  i | 1.31
C/C(=N\NS(=O)(=O)c1ccc(C)c([N+](=O)[O-])c1)c1cccs1
  i | 0.44
O=C(Nc1ccc(O)c2c(=O)cc(-c3cccc(Cl)c3)oc12)c1cccc(Cl)c1
  i | 0.03
CNC(=O)c1c(NC(=O)c2ccc(S(=O)(=O)N3CCCC3)cc2)sc2c1CCN(C(C)C)C2
  i | 2
O=C(OCc1ccccc1C(F)(F)F)c1cc([N+](=O)[O-])ccc1N1CCOCC1
  i | -0.35
CCOC(=O)N1CCN(C(=O)c2ccc3nc4ccc(Cl)cc4c(=O)n3c2)CC1
  i | -1.63
NC(=O)NC(=O)COC(=O)CCCCCNS(=O)(=O)c1ccc2c(c1)OCCO2
  i | -0.08
COc1ccc(CCNC(=O)c2cc(-c3cc(Cl)cc(Cl)c3)oc2C)cc1
  i | 0.26
CCOC(=O)c1c(-c2ccc(C)o2)csc1NC(=O)CN1CCOCC1
  i | -0.89
Cc1ccc(S(=O)(=O)NC(=O)c2ccccc2F)cc1
  i | -0.53
CCOC(=O)CNC(=O)CNC(=O)c1ccc(OC)cc1
  i | -1.28
CCc1ccc(C(C(=O)NC2CCCCC2)N(C(=O)c2ccccn2)c2cccnc2)cc1 (stereo not drawn)
  i | -0.23
COCCCn1c(=O)c2sccc2n2c(CCCC(=O)N3CCN(c4ccccn4)CC3)nnc12
  i | 0.09
COC(=O)N/N=C/c1cc(Cl)cc(Cl)c1OCc1ccccc1
  i | -0.67
COc1ccc(CC(=O)Nc2ccc(-c3nnc(-c4ccc(C)cc4)o3)cc2)cc1
  i | 1.02
CN(C)CCn1c(=S)[nH]c2ccc(Cl)cc2c1=O
  i | 0.95
c1ccc(Cn2nnnc2CN2CCCC2)cc1
  i | 0.28
O=C1/C(=C/c2ccc(O)c(O)c2)SC(=S)N1Nc1ccccc1
  i | -1.24
Cc1ccc(OCCNS(=O)(=O)c2cccs2)cc1
  i | 0.74
Cc1ccc(Cl)c2c1=NC(=O)C=2c1[nH]c(=S)[nH]c1O
  i | -1.2
CCC1CCCCN1CCCNC(=O)C1CCC(CNS(=O)(=O)c2c(C)cc(C)cc2C)CC1 (stereo not drawn)
  i | -0.1
COCCCn1c(SCC(=O)Nc2ccc(C(=O)OC)cc2)nc2ccccc2c1=O
  i | 1.75
COC(=O)c1c(NC(=O)C2CCC2)sc(C(=O)N(C)C)c1C
  i | 0.66
C=CCNC(=O)NC(=O)COC(=O)C(C)Oc1ccc(Cl)cc1Cl (stereo not drawn)
  i | 2.21
COc1ccccc1-n1c(-c2cccnc2)n[nH]c1=S
  i | -0.13
Cc1nn(-c2ccccc2)c(C)c1NS(=O)(=O)c1ccccc1
  i | -0.24
O=C(Cn1c(=O)cnc2ccccc21)NC1CCC(O)CC1 (stereo not drawn)
  i | 1.68
COc1nc(N(C)S(=O)(=O)c2ccc(C)cc2)nc(C)c1Cl
  i | -0.43
CCOc1ccccc1N1CCN(C(=O)c2ccc(OCC(=O)N3CCOCC3)c(OC)c2)CC1
  i | 0.2
CCN1CCS/C1=C\C=C\C1=[N+](CC)CCS1
  i | 2.68
O=[N+]([O-])c1cc(C(F)(F)F)ccc1NCCNC(=S)Nc1ccc(Cl)cc1
  i | -0.5
COc1cc(OCC(=O)NC(C)C)cc2c1C(=O)O[C@@H](C)CCCC(=O)CCCCC2
  i | -0.95
O=C(Cc1cc2ccccc2o1)NCc1ccc(F)cc1
  i | 0.88
O=C(/C=C/c1ccc(Br)cc1)N1CCN(c2cccc(C(F)(F)F)c2)CC1
  i | -3.18
CCOC(=O)c1cccc(NC(=O)C2CCCN2S(=O)(=O)c2cccc3cccnc23)c1 (stereo not drawn)
  i | 1.03
O=C(O)c1ccc(-c2nnc(-c3ccc([N+](=O)[O-])cc3)o2)cc1
  i | 0.88
O=C1NCCN(Cc2ccc(F)cc2)C1CC(=O)N1CC=C(c2ccccc2)CC1 (stereo not drawn)
  i | 0.83
COc1ccc2c(c1)c(C(=O)O)c(C)n2CCc1ccc(OC)c(OC)c1
  i | -1.44
COc1ccc(-c2nc(C#N)c(NCc3ccc(F)cc3)o2)cc1OC
  i | 2.25
Cn1ccc(NC(=O)Nc2ccc(Cl)cc2Cl)n1
  i | -0.04
CCc1nnc(NC(=O)C2CC(=O)N(C3CCCCC3)C2)s1 (stereo not drawn)
  i | -0.19

Going on with the list:
Order of values: KCNQ2 block | KCNQ2 block baseline
Cc1ccc(C)c(S(=O)(=O)N2CCCC2CNC(=O)C(=O)NCc2ccccc2)c1 (stereo not drawn)
  i | -0.03
COc1cc(C2Nc3ccc4ncccc4c3C3=C2C(=O)CC(C)(C)C3)cc(OC)c1O (stereo not drawn)
  i | -1.81
CC(C)OC(=O)C(=O)NNc1ccccc1
  i | -0.04
COc1ccc(C=Nc2cccc3ncccc23)cc1
  i | -1.2
COc1cc(C2N(Cc3ccccc3)CCN2Cc2ccccc2)ccc1OC(C)=O
  i | -2.07
COc1ccccc1N1CCN(C2CCCN(C(=O)CCc3cnccn3)C2)CC1 (stereo not drawn)
  i | -0.04
O=C(COC(=O)CN1C(=O)c2ccccc2C1=O)Nc1ncc(Cl)cc1Cl
  i | 0.45
Cc1ccc2c(c1)-c1cc(C)nn1C(c1sccc1C)N2 (stereo not drawn)
  i | -1.88
O=C(N/N=C/c1cc2c(cc1Br)OCO2)c1ccccn1
  i | -1.21
Cc1ccc(Cl)cc1NC(=O)c1cc(NC(=O)C2CCCCC2C(=O)O)ccc1N1CCOCC1 (stereo not drawn)
  i | 1.56
COc1ccc(N(CC(=O)Nc2ccccc2C)S(=O)(=O)c2c(C)[nH]c(=O)[nH]c2=O)cc1
  i | -0.88
COc1ccc(-n2cc(-c3ccccc3)nc2SC)cc1
  i | -0.44
Cc1cc(C)cc(Oc2coc3cc(OC(=O)c4cccnc4)ccc3c2=O)c1
  i | -0.27
CCN(CCCCN1C(=O)c2ccccc2C1=O)c1ccc2c(c1)C(=O)N(C)C2=O
  i | 1.2
N/C(=C\C(=O)c1cc(Cl)ccc1O)C(Cl)(Cl)Cl
  i | 1.94
Cc1ccc(-n2c(SCC(=O)NCc3ccco3)nc3sc(C)c(C)c3c2=O)cc1
  i | -1.1
COc1ccccc1/C=C1\SC(=O)N(CCC(=O)NCCCn2ccnc2)C1=O
  i | 3.57
CC1CN(CCCCOc2ccc3ccccc3c2)CC(C)O1 (stereo not drawn)
  i | 2.16
O=C(O)c1ccc(N=NN2CCOCC2)cc1
  i | 1.21
O=C(c1ccc(CSc2ccccc2)cc1)N1CCCCCC1
  i | 0.66
COc1ccc(NC(=O)c2ccc(CN(c3cc(Cl)ccc3C)S(=O)(=O)c3ccccc3)cc2)cc1OC
  i | 0.04
N#C/C(=N\O)c1nc2ccccc2[nH]1
  i | 6.45
CCc1c(C)c(C#N)c2nc3ccccc3n2c1NCc1ccccn1
  i | -0.37
CN(C)c1ccc(C(=S)N2CCCCC2)cc1
  i | 0.47
CCCCCSc1nnc2c(n1)OC(c1cccn1C)N(C(C)=O)c1ccccc1-2 (stereo not drawn)
  i | 1.23
Cc1ccc(C2(c3noc(CN4C[C@@H](C)O[C@@H](C)C4)n3)CCCC2)cc1
  i | 1.78
COc1ccc(/C=C(/C(=O)Nc2ccccc2C(=O)NC(C)C)c2ccccc2)cc1
  -7.9* | 0.67*
CCOC(=O)c1sc2nc(SC)nc(-c3ccccc3)c2c1N
  i | 0.07
CCSc1nnc(NC(=O)[C@@H](NC(=O)c2cccc(C)c2)C(C)C)s1
  i | -0.55
COc1ccc(C(C)=O)cc1CC(=O)Nc1ccc2c(c1)CCC2
  i | 2.96
CN1CCN(C2=Cc3ccc(Cl)cc3Sc3ccc(F)cc32)CC1
  i | 0.59

Grouped by structure, the compounds so far with bromine (5)
Order of values: KCNQ2 block | KCNQ2 block baseline
C#CCSc1nnc(CNS(=O)(=O)c2ccc(Br)cc2)n1C
  i | 0.85
C=C(Br)CN1CCN(CC(=C)Br)CC1
  i | 0.44
O=S(=O)(Cc1ccccc1)Nc1ccccc1Br
  i | 1.24
O=C(/C=C/c1ccc(Br)cc1)N1CCN(c2cccc(C(F)(F)F)c2)CC1
  i | -3.18
O=C(N/N=C/c1cc2c(cc1Br)OCO2)c1ccccn1
  i | -1.21
